# Vaccinia mCherry: vaccinia inhibition (mCherry reporter) | Potency, µM (top dose mostly 36.5 µM), inactives show at the highest dose activity change, negative = inhibition, usual class: inhibitors | hit rate 0.63% among 310,000 | Vaccinia virus mCherry reporter infection, fluorescence; about a quarter of the inactives have no number | AID 720579; active = well fitted inhibition curve with a large enough effect; inconclusive = small, poorly fitted or top-dose-only effect; inactive = no such curve, though single readings can be large or run the other way; tested in A549 cells; note: nearly all actives have a fitted effect of over 35% in size; inactives centre near -10
# Vaccinia Venus: inhibitors of vaccinia virus (Venus reporter). Vaccinia virus Venus reporter expression, fluorescence. Potency, µM (highest dose often 36.5 µM), for inactives: at the top dose activity change, negative = inhibition, hits mostly inhibitors. hit rate 0.46% among 330,000; active means well fitted inhibition curve with a large enough effect; inconclusive means small, poorly fitted or top-dose-only effect; inactive means no such curve, though single readings can be large or run the other way; tested in A549 cells; note: nearly all actives have a fitted effect of over 30% in size; inactives centre near -10
# * marks the source's active call; other numbers are inactive results; i = inactive; ? = inconclusive; nt = not tested or not shown; & = joins results of further samples; [ ] = another dose, or the depositor's remark. % is set by controls: 0 for no effect and ±100 for the full control effect; potency is the fitted concentration of half-maximal effect.
# The line under a structure holds: Vaccinia mCherry | Vaccinia Venus
COc1cc(CNCCc2ccc3c(c2)OCO3)ccc1O
→ i | -7%
COc1ccc(CNC(=O)C(C)N2CCN(c3ccc(C(C)=O)cc3)CC2)cc1 (configuration not stated)
→ -15% | -6%
O=C(OCCOCCN=C1NS(=O)(=O)c2ccccc21)c1ccccc1Br
→ i | -11%
CC1=C(C(=O)Nc2ccc(C(=O)NC(C)c3ccccc3)cc2)SCCO1 (configuration not stated)
→ i | -12%
O=C(C1CCN(S(=O)(=O)c2cccs2)CC1)N1CCc2ccccc2C1
→ ? | -21%
C[C@H]1CN([C@@H](C)CO)C(=O)c2cc(C#Cc3ccccn3)cnc2O[C@@H]1CN(C)Cc1ccccc1
→ 6% | -11%
CCOC(=O)C1CCN(C(=O)COc2ccc(Cl)cc2Cl)CC1
→ nt | -10%
O=C(NCCS(=O)(=O)N1CCN(c2ccccc2)CC1)c1cc(=O)c2ccccc2o1
→ 14% | -16%
O=C(/C=C/c1ccc2c(c1)OCO2)c1cccnc1
→ -1% | -22%
c1ccc2c3c([nH]c2c1)-c1[nH]ncc1CC3
→ -24% | -12%
COc1ccc(S(=O)(=O)N2CCC(Oc3ccc(-n4cnnn4)cc3)CC2)cc1
→ -5% | -10%
O=C(Cn1nnc2c(cnn2-c2ccc(F)cc2)c1=O)Nc1ccccc1C(F)(F)F
→ i | -1%
CC12CCC(C(=O)N(CSC(=S)N/N=C\c3ccccc3)C1=O)C2(C)C (configuration not stated)
→ -20% | -15%
Cc1nccc2oc(=O)c(NC(=O)c3ccc(Cl)cc3)cc12
→ -7% | -8%
CC(C)c1nc2ccc(C(=O)Nc3ccccc3F)cc2o1
→ ? | ?
Cc1ccc(C(C(=O)NCc2ccccc2)N(Cc2ccco2)C(=O)c2snc(C(N)=O)c2N)o1 (configuration not stated)
→ ? | -4%
CCCCn1c(N)c(N(CCOC)C(=O)c2ccc(C)o2)c(=O)[nH]c1=O
→ -15% | -3%
Cc1cc(C)n2nc(N)c(N=Nc3ccccc3)c2n1
→ i | -15%
CCOc1ccc(Cl)cc1CSc1n[nH]c(C)n1
→ -14% | -13%
CC(C)CN1CCC(CN2CCNC(=O)C2=O)CC1
→ i | 1%
O=C1NCCN1CCN1C(=O)c2ccccc2NC1c1ccccc1 (configuration not stated)
→ i | -12%
COC(=O)[C@@]1(C)[C@H]2C(=O)N(Cc3ccccc3)C(=O)[C@H]2[C@H]2CN=C(SCc3ccccc3)N21
→ -18% | ?
O=C(Cn1cnc2onc(-c3ccc(F)cc3)c2c1=O)N1CCN(c2ccc(F)cc2)CC1
→ -13% | -4%
O=C1CC(SCc2nc3ccccc3[nH]2)C(=O)N1c1ccc(F)cc1 (configuration not stated)
→ i | -4%
CC(C)n1nnnc1SCC(=O)NCc1cccs1
→ -19% | -14%
COc1ccc(OC)c(NC(=O)N2CC3CCCN3c3ccccc32)c1 (configuration not stated)
→ -16% | -14%
NCCCNCCCCNCCCN
→ 8% | 4%
COc1ccc(NC(=O)c2cccc(C#N)c2)cc1NS(=O)(=O)c1ccc(F)cc1
→ i | -10%
CCCC(=O)N1CCC1(C)C(=O)Nc1ccccc1C(C)(C)C (configuration not stated)
→ 10% | 7%
CCOP(=O)(c1ccc(N(C)C)cc1)C(O)c1ccc(C)cc1 (configuration not stated)
→ i | -4%
CC(=O)c1cc(-c2ccccc2)n(CCC(=O)NCc2cccs2)c1C
→ nt | -2%
Cc1nnsc1C(=O)NC1CCCCC1
→ i | -6%
N#Cc1ccc(-c2ccc(Cl)cc2)nc1SCC(=O)c1cccc(Cl)c1
→ -16% | -16%
COCc1ccc(CN2CCC(C(=O)Nc3cccc(-c4cscn4)c3)CC2)o1
→ -25% | -20%
COc1ccc(-c2csc3ncnc(N4CCN(S(=O)(=O)c5ccc(C)c(C)c5)CC4)c23)cc1
→ i | -5%
COc1ccc(-c2nnc(SCC(=O)N3CCCCC3)o2)c(OC)c1
→ -15% | -3%
Cc1occc1C(=O)N(C)Cc1nc(-c2ccccc2)no1
→ -13% | 3%
CCCS(=O)(=O)NCc1c(C)ncc2c1CCN(C(=O)/C=C/c1ccccc1)C2
→ -16% | -7%
COc1ccc(-c2cc(N)n(CCC#N)n2)c(OC)c1
→ i | -11%
COc1ccc(NC(=O)C/C(C)=N/NC(=O)c2cnccn2)c(OC)c1
→ -14% | -3%
Cc1ccc(-n2nnc(C(=O)Nc3cc(F)ccc3F)c2C)cc1F
→ -22% | -22%
COc1ccc(C2=CC(=O)C[C@H](c3ccc(F)cc3)C2)cc1OC
→ -14% | -11%
O=C(Cn1ncc2c(=O)oc3ccccc3c21)NCC1CCCO1 (configuration not stated)
→ -5% | 8%
Cc1cnnn1-c1ccc([N+](=O)[O-])cc1
→ -12% | -2%
CN(Cc1ccc(F)cc1)C(=O)c1cccc(S(=O)(=O)N2CCN(c3ccccc3)CC2)c1
→ -26% | -26%
Cc1ccc2occ(CC(=O)Nc3ccc(S(=O)(=O)N4CCC(C)CC4)cc3)c2c1
→ -28% | ?
O=C(COC(=O)/C=C/c1cccc([N+](=O)[O-])c1)NCc1ccc2c(c1)OCO2
→ i | -11%
Cc1nc2sc(C)c(C)n2c(=O)c1S(=O)(=O)N1CCN(c2ccccc2F)CC1
→ -6% | -7%
CCOC(=O)c1sc(/N=C/c2c(O)n(-c3cccc(C)c3)c(=O)[nH]c2=O)c(C#N)c1C
→ -4% | -12%
CC(C)=CC(=O)Nc1ccc(OCc2ccccc2)cc1
→ i | -14%

# (further entries)
# The line under a structure holds: Vaccinia mCherry | Vaccinia Venus
CCOC(=O)[C@]12CCCC=C1N(Cc1ccc3c(c1)OCO3)C(=O)[C@H](CC(=O)N1CCCC1)C2
→ -5% | 7%
O=C(Cn1c(=O)nc(-c2ccccc2F)c2cc(Cl)ccc21)NCCCc1ccccc1
→ -5% | -7%
COc1ccc(S(=O)(=O)NCCOc2ccccc2)cc1-n1cnnn1
→ -14% | -11%
Cc1ccc(C)c(NC(=O)Cn2c([N+](=O)[O-])cnc2C)c1
→ i | -16%
Cn1cccc1C1C(C#N)=C(N)OC2=C1C(=O)CCC2 (configuration not stated)
→ 3% | 11%
O=C(c1cccnc1)N1C2CCC1CC(O)(c1ccc(F)cc1)C2 (configuration not stated)
→ -15% | -9%
CC(OC(=O)CC1CCCCC1)C(=O)Nc1ccc(F)cc1 (configuration not stated)
→ -19% | -2%
Cn1c(N)c(C(=O)COC(=O)c2cccc(S(=O)(=O)N3CCCCC3)c2)c(=O)n(C)c1=O
→ i | -30%
CCN(CC)c1ccc2cc(S(=O)(=O)c3ccc(Cl)cc3)c(=O)oc2c1
→ i | -14%
CCCCOC(=O)c1nc(Cl)c(Cl)c(N)c1Cl
→ i | -3%

# Part of the list above, set out differently:
compound	Vaccinia mCherry	Vaccinia Venus
Cn1cccc1C1C(C#N)=C(N)OC2=C1C(=O)CCC2 (configuration not stated)	3%	11%
O=C(Cn1c(=O)nc(-c2ccccc2F)c2cc(Cl)ccc21)NCCCc1ccccc1	-5%	-7%

# Following part
# The line under a structure holds: Vaccinia mCherry | Vaccinia Venus
Cc1cc(C(=O)NNS(=O)(=O)c2ccccc2C(F)(F)F)nn1C(C)(C)C
→ 0% | -3%
COc1ccccc1NC(=S)N(Cc1cccnc1)Cc1ccco1
→ 0% | -8%
CCCNC(=O)C1(C)CCCN(C(=O)c2cccc(Cl)c2)C1 (configuration not stated)
→ 18% | -9%
C=CCn1c(CCC(=O)O)ccc1-c1ccc(OC)cc1
→ i | -4%
CN1CCN(S(=O)(=O)c2ccc(NC(=S)NC(=O)C(C)(C)C)cc2)CC1
→ -3% | -3%
CS(=O)(=O)c1ccc(Cl)c(C(=O)O)c1
→ i | -16%
Cc1ccccc1Nc1nc(N)nc(COC(=O)C2CCCCC2)n1
→ -8% | -8%
CCN(C(=O)CSc1nc(-c2ccccc2)cn1N)c1c(N)n(Cc2ccccc2)c(=O)[nH]c1=O
→ i | -6%
O=C1OCC2=C1C(c1ccc(F)cc1)c1cc3c(cc1N2)OCCO3 (configuration not stated)
→ ? | -24%
O=C(/C=C/Nc1ccc(F)cc1F)c1cccs1
→ -9% | 3%

# Reprinted at random: 2 entries already listed, in no set order.
# The line under a structure holds: Vaccinia mCherry | Vaccinia Venus
C=CCn1c(CCC(=O)O)ccc1-c1ccc(OC)cc1
→ i | -4%
CCCNC(=O)C1(C)CCCN(C(=O)c2cccc(Cl)c2)C1 (configuration not stated)
→ 18% | -9%

# Next part
# The line under a structure holds: Vaccinia mCherry | Vaccinia Venus
C=CCn1c(C)cc(C(=O)CSc2nnc(C3CC3)n2C2CC2)c1C
→ i | -4%
O=C(NCCN1CCOCC1)c1cc(-c2ccco2)on1
→ -17% | -7%
COc1ccc(/C=N/NC(=O)c2ccccc2OCc2ccccc2)c(OC)c1
→ -28% | -8%
C=CCOC(=O)CCC(=O)Nc1cccc2ccccc12
→ nt | 8%
NC(=O)c1ccc[n+](CC(=O)c2ccc(F)cc2)c1
→ i | -7%
O=C1C2CCCN2C(c2ccccc2F)N1c1cccc(Cl)c1 (configuration not stated)
→ -4% | -6%
Cc1ccc(N2C=Nc3ccc(C)c4nc(C)cc2c34)cc1
→ nt | -22%
Clc1nc(N2CCOCC2)ncc1Br
→ -1% | -12%
COc1ccc(CNC(=O)c2[nH]c(C(F)(F)F)nc2-c2ccccc2)cc1OC
→ i | 1%
NC(=NCc1ccc(Cl)cc1Cl)NC(=O)c1nc(Cl)c(N)nc1N
→ -19%[60.7 µM] | -12%[60.7 µM]
O=C(CCCn1c(=O)oc2ccccc21)Nc1ccccc1
→ -17% | -9%
COC(=O)c1ccccc1NC(=O)c1cn2c3c(ccc(Cl)c3c1=O)OC(C)C2 (configuration not stated)
→ -2% | -9%
CCNC(=O)c1cnc2sc(N3CCCCCC3)nn2c1=O
→ -9% | -8%
COc1ccc(N(CC(=O)NCCc2ccccc2)S(=O)(=O)c2ccccc2)c(OC)c1
→ -12% | -4%
NC(=O)c1c(NC(=O)c2nc(SCc3ccccc3F)ncc2Cl)sc2c1CCCC2
→ -1% | 11%
N/C(=N\c1nc2ccccc2o1)NC(=O)c1ccc([N+](=O)[O-])cc1
→ -4% | -5%
CCOc1ccc(-c2cc(C(=O)NCCc3ccc(Cl)cc3)c3ccccc3n2)cc1
→ -13% | -19%
COc1ccccc1-n1ccnc(SCC(=O)NC2CCCC2)c1=O
→ i | -8%
O=C(NCc1ccccc1Cl)C(=O)NCC(c1ccc2c(c1)OCO2)N1CCOCC1 (configuration not stated)
→ -16% | -9%
COc1ccc(S(=O)(=O)N2CCCC2CNC(=O)C(=O)NCc2ccccn2)cc1 (configuration not stated)
→ -5% | -18%
COc1ccccc1-c1cc(=O)c2c(O)ccc([N+](=O)[O-])c2o1
→ -25% | ?
CC(CCc1ccccc1)NC(=O)c1ccccc1Cl (configuration not stated)
→ -10% | -23%
COc1ccc(C2=Nc3ccccc3N(C(=O)c3ccc4ncccc4c3)C2C(=O)NC(C)(C)C)cc1 (configuration not stated)
→ -7% | -10%
COC(=O)[C@@]1(Cc2ccc(OC)cc2)[C@H]2c3cc(C(=O)N4CCCC4)n(CCn4cc([N+](=O)[O-])nc4C)c3C[C@H]2CN1C(=O)c1ccccc1
→ i | -8%
CC(C)CCOP(=O)(c1ccc(N(C)C)cc1)C(O)c1ccccc1 (configuration not stated)
→ -14% | -14%
COc1ccc(Cc2nc3ccccc3n2Cc2ccccc2C)cc1
→ -14% | -14%
O=C(Nc1ccc2oc(-c3ccc4ccccc4c3)nc2c1)c1cc(Br)ccc1Cl
→ ? | -30%
COc1ccc(S(=O)(=O)N(C)C[C@H]2Oc3ccc(NC(=O)NC4CCCCC4)cc3C(=O)N([C@H](C)CO)C[C@@H]2C)cc1
→ i | -14%
Cc1ccc(-c2cccc(C(=O)NCCc3ccccc3)n2)c2ccccc12
→ i | -6%
CC1(C)CN2C(=O)c3ccccc3C2(C)S1 (configuration not stated)
→ -9% | -7%
CN(C)S(=O)(=O)N1CCN(CC(O)COc2ccc(C(=O)c3ccccc3)cc2)CC1 (configuration not stated)
→ nt | -29%
COc1ccc(-n2nnnc2SCC(=O)c2cc3ccccc3o2)cc1
→ -11% | 4%
COc1cccc(-c2ccc(NC(=O)C3CCCN(Cc4cnc(C)n4C)C3)cc2)c1 (configuration not stated)
→ -14% | -26%
COc1ccc(S(=O)(=O)N2CCC(C(=O)N[C@@H](C)C(=O)NCc3cccnc3)CC2)cc1
→ -13% | -17%
CC(C)C(c1nnnn1CCc1ccccc1)N1CCOCC1 (configuration not stated)
→ -7% | -1%
COc1ccc(C(=O)N2CCN(S(=O)(=O)c3ccccc3)CC2)c(OC)c1
→ 0% | -15%
O=C(COC(=O)c1cccc(S(=O)(=O)N2CCCC2)c1)Nc1ccccc1
→ -1% | 3%
Cc1ccc(Nc2n[nH]c(C)c2[N+](=O)[O-])cc1C
→ -12% | -18%
Cn1c(=O)c([N+](=O)[O-])c(NCc2ccccc2)c2ccccc21
→ nt | -20%
COCCNC(=O)CSc1nc2cc3c(cc2c(=O)n1CCCC(=O)NCCc1ccc(OC)c(OC)c1)OCO3
→ -12%&-12% | -10%&-14%
N/C(=N\OC(=O)c1cc(Cl)ccc1Cl)c1cccnc1
→ i | -8%
CC(C)NC(=O)N1Cc2cc(C(=O)NC3CCC3)nc(-c3cccc(-c4cncnc4)c3)c2[C@H]1CCO
→ -7% | -2%
Cc1sc(NC(=O)c2cc(-c3ccc(Cl)cc3)nc3ccccc23)c(C(N)=O)c1C
→ nt | -20%
CCCCNC(=O)Cc1ccc(C)cc1
→ -13% | -4%

# Source: PubChem (National Center for Advancing Translational Sciences (NCATS))
